miR-21 reporter: qHTS Assay for Modulators of miRNAs and/orActivators of miR-21; HeLa miR-21 FLuc reporter, luciferase, 48 h; Potency, µM (highest dose often 38.3 µM), inactives show at the highest dose reporter change, positive = more light; 340,000 tested, under 10 active; active = well fitted rising curve with a large enough effect; inconclusive = small, poorly fitted or top-dose-only effect; inactive = no such curve, though single readings can be large or run the other way;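 further: % of control where 0% means no effect; miR-21 action dims this reporter so a rising signal means less miR-21 action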
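HeLa cells stably expressing CMV-driven firefly luciferase with a downstream miR-21 binding sequence, endogenously expressing miR-21, were treated with titrations (up to about 40uM final) for 48 hours at 37 degree Celsius. Luciferase luminescence was read after lysis.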
Rango complex inh: qHTS Assay for Inhibitors of Rango (Ran-regulated importin-beta cargo) - Importin beta complex formation; Rango CFP/YFP FRET sensor + importin beta, 45 min; actives 0.031% (n = 340,000); Importin subunit beta-1 (Homo sapiens), Q14974; Potency, µM (titrated, usually from 92.2 µM), inactives show at the highest dose inhibition of complex formation; active = rising FRET ratio curve, often small or poorly fitted; inconclusive = mostly compound fluorescence or quenching in the first reads; inactive = flat curves in all reads;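 further: potency means the concentration at half of the fitted maximal effect; 0% = DMSO wells and 100% = buffer wells lacking importin beta; nearly all actives have a fitted effect of over 15% in size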
Target sequence (Q14974 whole entry, looked up): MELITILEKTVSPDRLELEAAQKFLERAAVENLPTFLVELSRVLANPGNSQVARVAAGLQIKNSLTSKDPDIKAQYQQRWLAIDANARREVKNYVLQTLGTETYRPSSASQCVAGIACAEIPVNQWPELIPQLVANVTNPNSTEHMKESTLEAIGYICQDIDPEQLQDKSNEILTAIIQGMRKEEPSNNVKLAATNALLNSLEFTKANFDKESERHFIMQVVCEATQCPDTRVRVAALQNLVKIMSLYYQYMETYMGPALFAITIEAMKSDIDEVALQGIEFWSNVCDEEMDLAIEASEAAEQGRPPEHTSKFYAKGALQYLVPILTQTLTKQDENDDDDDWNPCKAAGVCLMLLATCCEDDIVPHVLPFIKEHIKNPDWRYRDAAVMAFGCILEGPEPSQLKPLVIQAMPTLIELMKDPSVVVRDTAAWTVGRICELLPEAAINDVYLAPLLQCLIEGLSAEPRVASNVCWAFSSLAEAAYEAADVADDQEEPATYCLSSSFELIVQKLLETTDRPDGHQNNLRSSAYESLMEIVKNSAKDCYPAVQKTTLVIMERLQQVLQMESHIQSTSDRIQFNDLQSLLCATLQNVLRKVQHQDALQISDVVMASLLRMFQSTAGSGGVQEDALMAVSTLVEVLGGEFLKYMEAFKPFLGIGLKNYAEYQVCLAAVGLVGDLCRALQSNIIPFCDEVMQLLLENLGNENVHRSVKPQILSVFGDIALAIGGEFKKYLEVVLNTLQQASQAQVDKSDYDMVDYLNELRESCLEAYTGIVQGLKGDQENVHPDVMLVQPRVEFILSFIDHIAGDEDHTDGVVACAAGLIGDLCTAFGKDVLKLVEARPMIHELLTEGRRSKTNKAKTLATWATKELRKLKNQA
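FRET biosensor (snurportin 1 IBB flanked by EYFP and cerulean), 50 nM, with compound 5 min, then 0.125 microM importin beta in PBS, 1 mM DTT, 0.02% Tween-20, 0.1% BSA. CFP/YFP ratio read after 45 min at room temperature; pre-read flags interference.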
GLA inh pH 4.5: qHTS Assay for Inhibitors of Human alpha-Galactosidase at pH 4.5; purified enzyme, 4-MU-alpha-Gal fluorescence, pH 4.5; 230,000 tested, under 10 active; activity change, negative = inhibition, % at 105 µM; Alpha-galactosidase A (Homo sapiens), P06280; inconclusive = small, poorly fitted or top-dose-only inhibition, or a rising curve; inactive = flat fitted curve, though single readings scatter; no compound was filed as active;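 further: 0% = full activity with enzyme and -100% = basal without enzyme; dose as in the result columns while the protocol names 77 µM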
Rango dissoc inh: qHTS Assay for Inhibitors of RanGTP induced Rango (Ran-regulated importin-beta cargo) - Importin beta complex dissociation; Snurportin-1 (Homo sapiens) + GTP-binding nuclear protein Ran (Homo sapiens) + Importin …; Biochemical FRET Rango-importin beta, RanGTP-induced dissociation; Potency, µM (top dose mostly 46.1 µM), inactives show at the top dose activity change, negative = inhibition; actives 0.071% (n = 340,000); AID 540253, 2011; active means falling FRET ratio curve, often poorly fitted, with flat reads before Ran was added; inconclusive means other falling curves, or compound fluorescence or quenching; inactive means flat or rising ratio curve;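 further: potency means the concentration at half of the fitted maximal effect; % of control where 0% means no effect; nearly all actives have a fitted effect of over 45% in size; -100% = wells without RanGTP and RCC1; the record marks most hits as doubtful in a second field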
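Recombinant Rango FRET biosensor (EYFP–snurportin 1 IBB–cerulean CFP10) at 0.1 uM premixed with 0.25 uM importin beta in PBS, 1 mM DTT, 0.02% Tween-20, 0.1% BSA. Compound added 5 min; RanGTP-RCC1 (0.6 uM Ran, 2 mM GTP, 0.2 uM RCC1) then triggers release, read at 45 min.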
* hit, by the source's call; ? = inconclusive; . = no result given. The list is partial, so the mix of outcomes need not match the whole.

nr	smiles	miR-21 reporter	Rango complex inh	GLA inh pH 4.5	Rango dissoc inh
1	CN(Cc1nc2ccccc2c(=O)[nH]1)C(=O)c1cc(C2CC2)nn1-c1ccccc1	.	-2.3%	.	-15.2%
2	COc1ccc(C)cc1NC(=O)NCc1ccco1	3.7%	-0.2%	7.2	1.2%
3	O=C(C1=C[C@@H](c2csc3ccccc23)C[C@@H](OCCCCO)O1)N1CCN(Cc2ccc3c(c2)OCO3)CC1	2.1%	-4.6%	-7.4	-2.7%
4	C[n+]1ccccc1/C=C/c1c(F)cccc1F	-1.8%	4.0%	.	-11.0%
5	O=S(=O)(c1cccc(-c2n[nH]c(=S)n2C2CCCC2)c1)N1CCOCC1	2.9%	-2.6%	7.5	-15.1%
6	CC(=O)NC(=S)Nc1ccc2oc(-c3cc(F)c(F)cc3Cl)nc2c1	-24.0%	2.2%	1.5	22.2%
7	CCN(C1CCCCC1)S(=O)(=O)c1ccc(S(=O)(=O)N2CCN(CCC#N)CC2)cc1	-5.5%	-1.7%	-3.9	2.9%
8	COc1ccc(C(=O)COC(=O)c2n[nH]c3ccccc23)c(OC)c1	.	2.2%	.	7.0%
9	COc1cc(C(=O)NN(CCC#N)C2=NS(=O)(=O)c3ccccc32)cc(OC)c1OC	-0.3%	-0.1%	.	-13.8%
10	COc1ccc(NC(=O)c2cc(S(=O)(=O)N3CCOCC3)ccc2C)cc1S(=O)(=O)N1CCCCC1	.	2.4%	.	2.4%
11	COc1ccc(S(=O)(=O)N2CCOCC2)cc1NC(=O)COc1ncnc2ccccc12	-7.9%	-4.0%	2.2	0.0%
12	Cc1cc(C)n(-c2ccc(C(F)(F)F)cc2[N+](=O)[O-])n1	0.6%	-0.3%	-1.0	11.5%
13	Cc1ccc(NC(=O)c2nc[nH]c2C(=O)N[C@@H](CCCCNC(=O)OC(C)(C)C)C(=O)OC(C)(C)C)cc1	20.2%	0.3%	-17.2	-14.0%
14	COc1ccccc1NC(=O)CNC(c1ccccc1)c1ccccc1	-7.9%	-0.1%	.	-6.5%
15	CC(C)Oc1ccc(CCN=C(N)N=C(N)N)cc1Cl	-47.4%	-1.9%	4.6	12.0%
16	CC(=O)c1cccc(S(=O)(=O)NCC(c2ccco2)N2CCCCC2)c1 (stereo unspecified)	4.5%	-3.5%	2.4	-16.8%
17	CC1CCCC(C)N1C(=O)COC(=O)c1ccc[nH]c1=O (stereo unspecified)	1.3%	2.0%	2.6	-6.3%
18	COc1ccc(OC)c(C2NC(=O)NC(C)=C2C(=O)OCc2ccccc2)c1 (stereo unspecified)	-5.2%	?	.	-4.5%
19	CCN1CCN(c2ccc(S(=O)(=O)N3CCOCC3)cc2NC(=O)/C=C/c2ccc([N+](=O)[O-])cc2)CC1	.	3.2%	.	-6.4%
20	O=C(COC(=O)c1cc(=O)c2ccccc2o1)NCC1CCCCC1	0.8%	2.9%	-15.8	0.5%
21	CCOc1cc(C(=O)Nc2ccc(S(=O)(=O)NC3=NCCCCC3)cc2)cc(OCC)c1OCC	3.2%	1.2%	-11.9	14.3%
22	Cc1cccc(C(=O)N2CCC(=O)N(C(COCc3ccc(Cl)cc3)Cc3ccccc3)CC2)c1 (stereo unspecified)	1.0%	-0.6%	-10.1	1.2%
23	COc1ccccc1NC1=NC(C)(C)N=C(N)N1	-1.0%	-2.5%	7.6	2.3%
24	O=C(c1cccc(S(=O)(=O)N2CCN(c3ccccc3)CC2)c1)N1CC=C(c2ccccc2)CC1	2.4%	0.7%	.	8.4%
25	CC(=O)c1ccc(N=C2C(=O)Nc3ccccc32)cc1	-2.2%	-2.6%	.	-15.3%
26	O=C(C1=C(O)C(=O)N(CC2CCCO2)C1c1ccc(Cl)cc1Cl)c1ccco1 (stereo unspecified)	12.0%	0.0%	.	1.3%
27	Cc1ccc(S(=O)(=O)N2CCCC(C(=O)NC3CCCC3)C2)cc1 (stereo unspecified)	-0.9%	0.0%	.	2.0%
28	CCCC(=O)O[C@]1(C(=O)CO)CC[C@H]2[C@@H]3CCC4=CC(=O)CC[C@]4(C)[C@H]3[C@@H](O)C[C@@]21C	-36.7%	-2.6%	.	-2.8%
29	O=C1c2ccccc2C(=O)N1/N=C/c1ccc(Oc2ccc([N+](=O)[O-])cn2)cc1	1.7%	?	.	?
30	CCOc1ccc(-c2nnc(-c3ccc(OC)cc3)o2)cc1	-13.2%	-1.0%	-1.2	-2.7%
31	O=C(Nc1ccc(Cl)c(Cl)c1)c1cccnc1	-33.5%	4.7%	.	?
32	COc1cc(/C=N/NC(=O)c2ccc(NC(=O)C3CCCCC3)cc2)ccc1O	11.3%	1.5%	.	-6.7%
33	O=C(CCCSc1ccccc1)Nc1cccc(CO)c1	-12.3%	-1.9%	.	23.8%
34	Cc1cc(C)cc(OCC(=O)N2N=C(C(F)(F)F)CC2(O)C(C)(C)C)c1 (stereo unspecified)	2.2%	11.7%	-0.3	10.2%
35	CCOC(=O)/C(C#N)=C\c1cc(OC)c(OC)cc1[N+](=O)[O-]	2.4%	2.9%	-1.5	-6.3%
36	COCCn1c(SCC(=O)Nc2ccccc2F)nnc1-c1ccoc1C	1.4%	1.0%	.	0.5%
37	CC(=O)c1ccc(NC(=S)Nc2ccc3cn[nH]c3c2)cc1	4.6%	0.4%	-0.5	8.5%
38	COc1ccc(C(c2sc3nc(C)nn3c2O)N2CCC3(CC2)OCCO3)cc1 (stereo unspecified)	-7.0%	5.3%	3.7	-13.2%
39	O=C1OCCC1Sc1nnc(-c2ccco2)n1-c1ccccc1 (stereo unspecified)	-0.1%	1.8%	-12.2	-2.3%
40	COc1cccc(C2CC(=O)Nc3c2c(=O)[nH]c2ncnn32)c1 (stereo unspecified)	-1.6%	-3.4%	4.7	-0.3%
41	Cn1c(=S)c2[nH]c(SCCN3CCCC3)nc2n(C)c1=O	4.9%	-0.2%	-18.0	-2.4%
42	CCCN(CCC)c1nc(NC2CCN(C(=O)OCC)CC2)nc(OC)n1	19.1%	0.0%	-8.1	5.1%
43	S=C1NCN(Cc2ccccc2)CN1C1CCCCC1	-1.3%	-1.6%	0.8	-21.8%
44	CCOc1ccc(CC(=NCCc2ccccc2)C2=C(O)CC(C)(C)CC2=O)cc1OCC	-12.9%	4.3%	-0.3	2.0%
45	O=C(NCCCO)/C(=C/c1ccc(-c2cccc([N+](=O)[O-])c2)o1)NC(=O)c1ccccc1	-9.4%	-0.2%	4.9	-21.5%
46	O=C(C1CCN(Cc2ccccc2O)CC1)N1CCN(Cc2ccc3c(c2)OCO3)CC1	2.9%	-1.3%	.	-14.1%
47	N/C(=N\OC(=O)CCc1ccccc1)c1cccnc1	-33.9%	-0.9%	-0.1	-5.0%
48	Cc1oc(C)c(C(=O)Nc2ccc(CC(=O)O)cc2)c1C(=O)Nc1ccc(CC(=O)O)cc1	-1.5%	-0.7%	-1.6	-16.8%
49	COc1ccc(C2CC(c3cccs3)=NN2C(=O)CSc2nncs2)cc1OC (stereo unspecified)	2.0%	-1.1%	1.8	1.3%
50	Cc1ccc2cc(CCNC(=O)C(=O)c3c(C)[nH]c4ccccc34)c(=O)[nH]c2c1	0.5%	-3.7%	-2.3	-6.5%
51	Cc1ccc(C(=O)C(OC(=O)COc2ccccc2C)c2ccccc2)cc1 (stereo unspecified)	-3.9%	0.1%	8.4	?
52	CC(Sc1nnc(-c2cc3ccccc3o2)n1-c1ccccc1)C(=O)O (stereo unspecified)	-13.0%	-2.1%	5.1	-1.3%
53	O=c1ccc(S(=O)(=O)N2CCCC2)cn1Cc1ccc(F)cc1	.	0.3%	.	0.3%
54	CC1=NN(C(=S)Nc2ccccc2)C(c2ccccc2)C1 (stereo unspecified)	-22.2%	2.2%	-8.4	-1.7%
55	Cn1nc(C(=O)OCC(=O)N(Cc2ccccc2)C(C)(C)C)c2ccccc2c1=O	.	-2.9%	.	14.7%
56	CCCCn1c(SCC(=O)Nc2nc(C)cs2)nnc1-c1cccnc1	0.1%	-1.2%	0.2	6.6%
57	Cc1cccc(N2CCN(S(=O)(=O)c3ccc(-c4coc(C)n4)cc3)CC2C)c1 (stereo unspecified)	1.6%	-0.7%	.	8.5%
58	CCOCCCNC(=S)NCCCNc1nc2c(C)cc(C)cc2cc1C#N	-20.0%	?	3.4	?
59	CCCn1c2ccc(F)cc2c2nnc(NN)nc21	-9.0%	-0.9%	-12.4	-1.8%
60	CC1CCc2[nH]c3ccc(C(=O)N4CCCC(C(F)(F)F)C4)cc3c2C1 (stereo unspecified)	.	1.8%	.	2.4%

(more compounds)
nr	smiles	miR-21 reporter	Rango complex inh	GLA inh pH 4.5	Rango dissoc inh
61	CCSc1nc2nccnc2c(=O)[nH]1	.	-1.1%	.	-12.7%
62	O=C(Nc1nnc(-c2ccccc2)o1)c1ccc(Cl)cc1	-6.8%	-3.0%	7.2	8.1%
63	O=S(=O)(NN1CCOCC1)c1cc(Cl)cc(Cl)c1O	0.3%	0.2%	.	0.4%
64	CC(=O)Nc1ccc(S(=O)(=O)Nc2ccc3c(c2)OCO3)cc1	0.1%	-3.3%	.	0.5%
65	Cc1ccc(CSCC(=O)NCc2ccc3c(c2)OCO3)cc1	-5.6%	-4.5%	-4.6	-13.2%
66	Cc1ccc(SC(C)C(=O)N2CCN(c3ccccc3)CC2)cc1 (stereo unspecified)	1.7%	-2.9%	.	0.3%
67	COC(=O)N1CC(=O)N(OC)C1c1ccc(Cl)cc1Cl (stereo unspecified)	-0.1%	-3.7%	-26.0	-3.1%
68	Cc1ccc(NC(=O)CN(Cc2ccccc2)S(C)(=O)=O)cc1C	-3.2%	4.5%	-2.2	10.5%
69	CCC(C)OC(=O)C1=C(C)NC(=O)NC1c1ccc(F)cc1 (stereo unspecified)	1.3%	0.4%	4.4	11.4%
70	c1cc(SSc2ccncc2)ccn1	10.3%	3.8%	.	-9.8%
71	O=C(/C=C/c1cn(CC(O)CN2CCCCCC2)c2ccccc12)c1cccs1 (stereo unspecified)	-0.8%	?	-8.9	?
72	CC(NC(=O)CN(C1CCCCC1)S(C)(=O)=O)c1ccccc1 (stereo unspecified)	-0.2%	3.0%	1.2	11.6%
73	Clc1ccc(-c2nnc(COc3ncnc4sccc34)o2)cc1	-22.4%	?	-3.1	-12.2%
74	COc1cc2c(cc1OC)[C@@H]1Cc3cc4c(cc3[C@H](C2)N1C)OCO4	-7.5%	5.4%	-8.1	-0.6%
75	Cc1ccc(-c2nnc(-c3ccc(NC(=O)c4ccco4)cc3)o2)cc1	-8.4%	1.1%	-2.0	0.6%
76	CC(C)(C)C(=O)NC(=C(Cl)Cl)P(=O)(O)O	-0.2%	0.7%	-5.4	-1.5%
77	COc1ccc(CC(=O)Oc2ccccc2C)cc1	-0.2%	-0.3%	.	-4.4%
78	Cn1c(CNC(=O)CCNC(=O)c2ccccc2)cc(=O)n(C)c1=O	0.3%	10.4%	.	-12.1%
79	CCOc1ccc(NC(=O)[C@H](C)NC(=O)C2CC(=O)N(c3ccc(OC)cc3)C2)cc1 (stereo partly specified)	-3.2%	1.5%	.	-16.2%
80	COc1cc(CN=Cc2c(O)n(Cc3ccccc3)c(=S)[nH]c2=O)cc(OC)c1	0.2%	-0.6%	-0.9	0.5%
81	CCCn1c(N)c(N2CCCCC2)c(=O)n(CC(=O)Nc2ccc(C(C)=O)cc2)c1=O	.	0.1%	.	11.3%
82	COc1ccc(C(=O)COC(=O)c2cc(S(=O)(=O)N3CCCCC3)ccc2N2CCOCC2)c(OC)c1	.	0.4%	.	-4.1%
83	Clc1ccc(-n2ncc3c(NCCN4CCOCC4)ncnc32)cc1	-21.1%	?	-21.4	1.5%
84	Clc1ccc(OCCCCN2CCCCC2)cc1	-4.6%	2.4%	.	-28.8%
85	CN(C)CCCN(C(=O)COc1ccc(Cl)cc1)c1nc2cc3c(cc2s1)OCCO3	.	3.2%	.	-0.2%
